Rango release inh – inhibitors of RanGTP-induced Rango-importin beta complex dissociation. hit rate 0.071% among 340,000. Biochemical FRET Rango-importin beta, RanGTP-induced dissociation. Potency, µM (top dose mostly 46.1 µM), for inactives: top-dose activity change, negative = inhibition; active means falling FRET ratio curve, often poorly fitted, with flat reads before Ran was added; inconclusive means other falling curves, or compound fluorescence or quenching; inactive means flat or rising ratio curve;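 also: potency is read from the fitted curve at half-maximal effect; % of control where 0% means no effect; nearly all actives have a fitted effect of over 45% in size; -100% = wells without RanGTP and RCC1; the record marks most hits as doubtful in a second field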
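Quantitative HTS using a FRET biosensor: 0.1 uM Rango, 0.25 uM importin beta, 0.6 uM Ran, 2 mM GTP, 0.2 uM RCC1 final, PBS with DTT, Tween-20 and BSA. Post-read taken 45 min after Ran addition.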
GLA inh pH 4.5 – inhibitors of human alpha-galactosidase A at pH 4.5. 230,000 tested, under 10 active. purified enzyme, 4-MU-alpha-Gal fluorescence, pH 4.5. activity change, negative = inhibition, % at 105 µM; inconclusive = small, poorly fitted or top-dose-only inhibition, or a rising curve; inactive = flat fitted curve, though single readings scatter; no compound was filed as active;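 also: 0% = full activity with enzyme and -100% = basal without enzyme; dose as in the result columns while the protocol names 77 µM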
Rango-impB inh – Rango-importin beta binding inhibition; Rango CFP/YFP FRET sensor + importin beta, 45 min; Potency, µM (top dose mostly 92.2 µM), for the others: at the top dose inhibition of complex formation; hit rate 0.031% among 340,000; active = rising FRET ratio curve, often small or poorly fitted; inconclusive = mostly compound fluorescence or quenching in the first reads; inactive = flat curves in all reads;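 also: potency is read from the fitted curve at half-maximal effect; 0% = DMSO wells and 100% = buffer wells lacking importin beta; nearly all actives have a fitted effect of over 15% in size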
Target sequence (Q14974 whole entry, looked up): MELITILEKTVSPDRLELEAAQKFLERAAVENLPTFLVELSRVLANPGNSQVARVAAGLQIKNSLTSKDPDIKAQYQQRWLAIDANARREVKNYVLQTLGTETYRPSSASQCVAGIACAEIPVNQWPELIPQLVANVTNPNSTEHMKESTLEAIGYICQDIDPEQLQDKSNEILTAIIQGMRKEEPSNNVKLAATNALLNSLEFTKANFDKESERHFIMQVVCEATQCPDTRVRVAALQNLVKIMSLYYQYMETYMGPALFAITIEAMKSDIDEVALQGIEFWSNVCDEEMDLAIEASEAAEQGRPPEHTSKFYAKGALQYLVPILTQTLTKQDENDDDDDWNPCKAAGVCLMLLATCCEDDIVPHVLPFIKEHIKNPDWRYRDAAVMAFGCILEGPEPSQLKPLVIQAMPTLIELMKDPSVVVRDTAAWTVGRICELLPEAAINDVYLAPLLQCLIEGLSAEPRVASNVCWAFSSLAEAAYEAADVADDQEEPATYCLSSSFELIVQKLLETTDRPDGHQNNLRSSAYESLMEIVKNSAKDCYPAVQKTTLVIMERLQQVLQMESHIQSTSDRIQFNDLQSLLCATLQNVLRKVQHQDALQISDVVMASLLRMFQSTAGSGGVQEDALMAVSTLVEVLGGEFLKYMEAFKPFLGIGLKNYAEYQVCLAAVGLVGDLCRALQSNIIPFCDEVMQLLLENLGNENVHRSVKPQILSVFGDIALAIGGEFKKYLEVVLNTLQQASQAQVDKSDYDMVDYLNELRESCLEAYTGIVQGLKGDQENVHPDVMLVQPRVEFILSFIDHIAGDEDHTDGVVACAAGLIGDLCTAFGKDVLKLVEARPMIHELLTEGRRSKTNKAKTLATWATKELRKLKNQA
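FRET biosensor Rango (snurportin 1 IBB between N-terminal EYFP and C-terminal Cerulean), 50 nM in PBS/1 mM DTT/0.02% Tween-20/0.1% BSA, preincubated 5 min RT with compound; 0.125 microM importin beta added, 45 min RT, CFP/YFP FRET ratio read.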
miR-21 reporter – raises the signal of a miR-21 reporter. 340,000 tested, under 10 active. Potency, µM (highest dose often 38.3 µM), for inactives: at the top dose reporter change, positive = more light. AID 2288. HeLa miR-21 FLuc reporter, luciferase, 48 h; active = well fitted rising curve with a large enough effect; inconclusive = small, poorly fitted or top-dose-only effect; inactive = no such curve, though single readings can be large or run the other way;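 also: % of control where 0% means no effect; miR-21 action dims this reporter so a rising signal means less miR-21 action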
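Luminescence from a firefly luciferase reporter carrying a miR-21 binding site downstream, stably expressed under a CMV promoter in HeLa cells that make miR-21 endogenously, reports miRNA modulation after 48 h compound exposure up to approximately 40uM final.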
The depositor's hits bear a star; ? = inconclusive; . = no result given. Some of the compounds tested; count on the stated rates, not on these rows.

SMILES	Rango release inh	GLA inh pH 4.5	Rango-impB inh	miR-21 reporter
Cn1c(SCC(=O)NCC2CCCO2)nnc1-c1ccc(S(=O)(=O)N2CCCC2)cc1 (configuration not stated)	14%	0	0.1%	-5%
Nc1ccc(Sc2ccc([N+](=O)[O-])cc2)cc1	27%	-1	2.2%	-19%
N/C(=N\OC(=O)c1ccccc1)c1ccn[nH]1	-14%	.	-0.1%	-45%
COc1cc(OC)cc(-c2ncc3ccccn23)c1	2%	1	-2.4%	-5%
O=C(NCCc1ccccn1)c1cccnc1Oc1ccc(Cl)cc1	?	-23	-3.1%	-10%
CCC(C)NC(=O)C1(O)c2cc(Br)ccc2NC(=O)N1c1cccc(OC)c1 (configuration not stated)	3%	.	0.1%	-2%
Cc1ccc(Nc2cc(C)c3c(O)cccc3n2)cc1C	-9%	-9	2.7%	-38%
Cc1ccc(NC(=O)COc2ccccc2CNC(C)(C)CC(C)(C)C)cc1	17%	-26	4.9%	?
COc1cc(/C=C2\SC(=O)NC2=O)ccc1Oc1ccc([N+](=O)[O-])cc1[N+](=O)[O-]	0%	-27	6.1%	-8%
COc1ccc(NC(=O)C(NC(C)=O)C(=O)NCc2ccccc2Cl)cc1 (configuration not stated)	?	2	-0.6%	-10%
O=c1cc(O)c(-c2ccc(Cl)cc2)c(Cl)[nH]1	17%	19	0.2%	1%
O=C1c2cc(F)ccc2OC2(CCNCC2)C12CC(c1ccccc1)=NO2 (configuration not stated)	1%	5	-0.9%	3%
O=C(CSCc1c(Cl)cccc1Cl)NCc1ccco1	-18%	-5	-5.5%	-12%
COc1ccccc1N1CCN(C(=S)NC(=O)/C=C/c2ccc(F)cc2)CC1	10%	0	0.0%	-36%
Cc1cc(C)cc(NC(=O)C(OC(=O)c2ccc([N+](=O)[O-])o2)c2ccccc2)c1 (configuration not stated)	-7%	-23	-0.5%	-5%
Cc1ccc(C(=O)NCC(=O)OCC(=O)c2ccc(Cl)s2)cc1	7%	.	-3.1%	.
COc1cc(OC)c(NC(=O)[C@@H]2CCC(=O)N2C2OC(=O)c3c2ccc(OC)c3OC)cc1Cl (some centres not stated)	-4%	.	2.9%	0%
COCCNC(=S)N(CCCO)Cc1cc2cc3c(cc2[nH]c1=O)OCCO3	6%	.	-5.2%	-2%
CCN(CC(=O)NCc1cccs1)C(=O)/C=C/c1cc(OC)c(OC)c(OC)c1	7%	.	-4.4%	.
O=C(Nc1ccc(S(=O)(=O)N2CCOCC2)cc1)c1ccccc1	21%	.	-2.6%	-2%

Quoted from the listing.
Entry for CCC(C)NC(=O)C1(O)c2cc(Br)ccc2NC(=O)N1c1cccc(OC)c1 (configuration not stated) under miR-21 reporter: -2%
Entry for O=C(CSCc1c(Cl)cccc1Cl)NCc1ccco1 under Rango-impB inh: -5.5%
Entry for O=C1c2cc(F)ccc2OC2(CCNCC2)C12CC(c1ccccc1)=NO2 (configuration not stated) under GLA inh pH 4.5: 5
Entry for O=c1cc(O)c(-c2ccc(Cl)cc2)c(Cl)[nH]1 under GLA inh pH 4.5: 19
Entry for Cc1ccc(NC(=O)COc2ccccc2CNC(C)(C)CC(C)(C)C)cc1 under Rango release inh: 17%
Entry for Cc1ccc(C(=O)NCC(=O)OCC(=O)c2ccc(Cl)s2)cc1 under Rango-impB inh: -3.1%

Next section:
SMILES	Rango release inh	GLA inh pH 4.5	Rango-impB inh	miR-21 reporter
CCOC(=O)C1=C(O)C(Nc2nc3ccccc3s2)(C(F)(F)F)N=C1C (configuration not stated)	-4%	-12	?	-5%
Cc1ccc(NC(=O)C(C)c2cccc(C(=O)c3ccccc3)c2)cc1O (configuration not stated)	-8%	-7	-0.4%	17%
CCOC(=O)c1oc2ccccc2c1NC(=O)c1ccc(Cl)s1	-17%	6	-2.6%	-10%
CC1CN(CCOCCSc2ccccc2)CC(C)O1 (configuration not stated)	9%	-3	1.8%	-5%
Cc1csc(SCC(=O)Nc2ccc(F)cc2Cl)n1	8%	.	-1.3%	.
COc1ccc(-n2c(C)nc3cc(C(=O)NCCN4CCOCC4)ccc32)cc1	-6%	-2	-2.9%	-3%
Cc1ccc(C)c(S(=O)(=O)NCC(c2ccc3c(c2)OCO3)N2CCOCC2)c1 (configuration not stated)	25%	.	4.6%	.
COc1ccc(C(=O)Nc2ccc(Cl)cc2C(=O)NCCN2CCOCC2)cc1	-20%	10	-2.3%	0%
COc1ccc(S(=O)(=O)N(C)C)cc1NC(C)C(=O)Nc1cccc(C#N)c1 (configuration not stated)	-8%	-6	4.0%	-4%
N#Cc1ccc(CN2CCN(C(=O)CNC(=O)Cc3cccc4ccccc34)CC2)cc1	-4%	.	-0.5%	.
Cc1ccc(S(=O)(=O)N(C)c2ccc(OCC(=O)Nc3ccc(C(=O)N(C)C)cc3)cc2)cc1C	-3%	.	-1.7%	.
CC(=O)Nc1cccc(Oc2ncccc2[N+](=O)[O-])c1	-6%	3	?	-3%
CN1CCc2nc(NC(=O)COc3ccc4ccccc4c3)sc2C1	-9%	1	-3.4%	-2%
O=C(O)CCCC(=O)NCc1ccccn1	-5%	-3	-2.1%	-5%
O=C(c1ccc(S(=O)(=O)N2CCOCC2)cc1)N1CCc2ccccc2C1	10%	2	1.3%	-12%
Cc1ccccc1NC(=O)C1Cc2ccccc2CN1C(=O)c1ccco1 (configuration not stated)	-5%	.	-1.4%	-33%
COc1ccc(-c2ccc([C@H]3[C@H]4C=CC[C@@H](C)[C@@H]4C(=O)N3Cc3ccccc3)c(F)c2)cc1	9%	4	-3.0%	13%
CCOC(=O)C1=C(CP(=O)(c2ccccc2)c2ccccc2)NC(=O)NC1c1ccc(OC)cc1 (configuration not stated)	-1%	5	-1.3%	-2%
NS(=O)(=O)c1ccc(SCc2ccccc2)nc1	-28%	.	0.3%	.
CN(Cc1ccc(F)cc1)Cc1nc(-c2cnccn2)no1	18%	7	-1.0%	5%
C#CCNC(=O)C1=C[C@@H](c2ccc3c(c2)OCO3)C[C@@H](OCCCCO)O1	-6%	.	-2.5%	.
CCCCOC(=O)Nc1nnc(SCCOc2ccc(C)cc2)s1	9%	-3	2.0%	2%
Cc1c(CN2CCN(CC(C)C)C(CCO)C2)[nH]c2ccc(Cl)cc12 (configuration not stated)	5%	.	-6.6%	-4%
COC(=O)c1ccc(S(=O)(=O)N2C3CCC2CC(NC(=O)NC2CCCCC2)C3)cc1 (configuration not stated)	-7%	7	3.7%	-11%
CN(C)CCNC(=O)C(=O)c1c(-c2ccccc2)cc2ccccn12	-9%	-8	0.5%	-3%
CSCCC(NC(=O)COc1ccccc1)C(=O)N1CCN(C(C)=O)CC1 (configuration not stated)	15%	.	1.9%	-2%
c1ccc(Cn2nnnc2C(c2cccs2)N2CCc3ccccc3C2)cc1 (configuration not stated)	11%	-3	0.8%	13%
Fc1ccc(COc2ccc3ccccc3c2CNc2nn[nH]n2)cc1	-3%	7	-4.4%	5%
CCC(C)[C@H]1CN=C(N)N1CCc1cccc2ccccc12 (some centres not stated)	18%	.	-0.3%	.
CC(C)(C)OC(=O)NCc1ccc(CNC(=O)c2nc[nH]c2C(=O)N2CCN(C(=O)OC(C)(C)C)CC2)cc1	-10%	.	6.7%	.
Cc1ccc(N(CC(=O)N2CCCC2)S(C)(=O)=O)c(C)c1	24%	.	3.5%	3%
Cc1ccccc1OCC(=O)OC(C)CN1CCN(C)CC1 (configuration not stated)	1%	3	-0.2%	-1%
CCOC(=O)C(C)N1C(=O)S/C(=C/c2cc(C)n(-c3ccncc3)c2C)C1=O (configuration not stated)	?	-3	?	-1%
COc1ccc(C(=O)N/C(=C\c2cccc([N+](=O)[O-])c2)C(=O)Nc2cccc(C(=O)O)c2)cc1	0%	5	?	0%
[O-]/C(=C(\C(=S)Nc1cccc2ccccc12)[n+]1ccccc1)c1ccc2c(c1)OCCO2	-14%	0	-1.7%	-2%
O=C(Nc1ccc(N2CCOCC2)cc1)c1cccc(S(=O)(=O)N2CCC(Cc3ccccc3)CC2)c1	3%	6	-0.3%	1%
N#Cc1ccccc1NC(=O)CSc1nnc(-c2ccccc2)n1-c1ccccc1	-10%	5	0.1%	1%
CCCCCOC(=O)CSc1n[nH]c(=O)[nH]c1=O	-11%	2	-1.7%	-1%
CCN1CCN(C(=O)CN(c2ccc(F)cc2)S(=O)(=O)c2ccc(OC)c(OC)c2)CC1	0%	.	-0.8%	-11%
N#C/C(=C\c1ccc(F)cc1)C(=O)Nc1ccccn1	?	.	?	1%
CCN(Cc1ccccc1)C(=O)Cn1cc(S(=O)(=O)NC)c(S(=O)(=O)NC)c1	1%	.	1.3%	-2%
Clc1ccc2nc(N3CCCCC3)sc2c1	0%	1	-0.8%	-71%
COc1ccc(CNC(=O)COC(=O)c2ccc(Br)o2)cc1	-5%	.	-4.5%	.
CN(C)CCNC(=O)C(=O)Nc1cc2c3c(c1)CCC(=O)N3CCC2	-1%	.	-1.0%	0%
O=C(COC(=O)CCS(=O)(=O)c1ccccc1)NC(=O)c1ccc(OC(F)F)cc1	1%	.	3.3%	.
O=C(Nc1nnc(C2=COCCO2)o1)c1ccc(F)cc1	1%	.	-0.2%	-7%
Cc1ccc2c(c1)COc1c3ccc(C(=O)O)cc3nn1-2	1%	.	2.2%	-14%
CC(C)CC(=O)Nc1ccnn1C1CCN(C(=O)c2ccc(F)cc2Cl)CC1	-21%	.	3.5%	-8%
COc1ccc(-c2[nH]ncc2CN2CCCC(C(=O)c3ccc(OC)cc3OC)C2)cc1 (configuration not stated)	7%	-7	-1.7%	-7%
COc1ccccc1C1C([N+](=O)[O-])=CC([N+](=O)[O-])=CN1C (configuration not stated)	0%	-2	?	-14%
Cc1n[nH]c(C)c1CN(C)C(=O)C1CCC(=O)N(CCc2cccc(F)c2)C1 (configuration not stated)	13%	.	-0.9%	0%
CC(CCc1ccccc1)NC(=O)Cc1ccc([N+](=O)[O-])cc1 (configuration not stated)	11%	0	-2.0%	-3%
CCN1CCN(C(=O)/C=C/c2cccc(Cl)c2)CC1	0%	.	0.2%	-7%
COc1ccc(CCNC(=O)c2c[nH]c3ccc(F)cc3c2=O)cc1OC	-8%	.	0.4%	12%
CC(CCc1ccccc1)NC(=O)c1nnc(Cc2ccc(F)cc2)o1 (configuration not stated)	-6%	1	0.4%	-6%
O=C(NC1CCCC1)C(c1ccccn1)N(C(=O)c1csnn1)c1ccccc1 (configuration not stated)	5%	.	-2.5%	0%
CC(O)[C@H]1CNC(=O)C(=O)N1CCc1cccc2ccccc12 (some centres not stated)	-15%	13	-0.1%	-1%
Cc1noc(C)c1C(=O)NCC(=O)Nc1ccccc1Br	25%	.	0.9%	.
CCOc1ccccc1C1NC(=O)CCC1[N+](=O)[O-] (configuration not stated)	-8%	.	-5.8%	1%
COc1cccc(NC(=O)CN(C)C(=O)CN2C(=O)NC(C)(c3ccc4ccccc4c3)C2=O)c1 (configuration not stated)	-4%	.	-0.4%	.

4 compounds drawn at random from the list so far:
SMILES	Rango release inh	GLA inh pH 4.5	Rango-impB inh	miR-21 reporter
COc1ccc(CCNC(=O)c2c[nH]c3ccc(F)cc3c2=O)cc1OC	-8%	.	0.4%	12%
CCN(Cc1ccccc1)C(=O)Cn1cc(S(=O)(=O)NC)c(S(=O)(=O)NC)c1	1%	.	1.3%	-2%
O=C(Nc1nnc(C2=COCCO2)o1)c1ccc(F)cc1	1%	.	-0.2%	-7%
CC(CCc1ccccc1)NC(=O)c1nnc(Cc2ccc(F)cc2)o1 (configuration not stated)	-6%	1	0.4%	-6%

More records:
SMILES	Rango release inh	GLA inh pH 4.5	Rango-impB inh	miR-21 reporter
Cc1cccc(NS(=O)(=O)c2ccc(C)c(C(=O)N3CCN(C(=O)c4ccco4)CC3)c2)c1	25%	.	-4.0%	.
COc1cc(NC(=S)NN2CCOCC2)cc(OC)c1	0%	.	0.9%	.
COCC(CN1CCN(C2=NS(=O)(=O)c3ccccc32)CC1)OC(=O)c1ccccc1 (configuration not stated)	10%	.	4.2%	2%
COC(=O)c1ccc(NC(=O)COC(=O)CCC2CCCC2)cc1	-21%	.	-0.2%	.
O=C(CSc1nccn1Cc1ccco1)Nc1ccccc1C(F)(F)F	-4%	.	2.9%	-25%
CC(C)(C)NC(=O)CSc1nsc(SCC(=O)NC(C)(C)C)c1C#N	-16%	7	-5.2%	19%
COc1cc(OC)cc(C(=O)Nn2cnnc2)c1	2%	-1	10%	1%
